Biofilm kill mix: clotrimazole potentiators killing C. albicans biofilm, primary screen, 4-compound mixtures; C. albicans biofilm persisters + clotrimazole, fluorescence viability; primary screen in compound mixtures of four per well; inhibition, % at 7.6 µM; hit rate 0.02% among 120,000;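 active means inhibition above 30.3% in the primary screen of four-compound pools, then above 30% when the compound was retested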;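 further: compounds exposed to preformed 24 h biofilms for 48 h; the number belongs to the whole pool; some results filed as inactive read as strong as hits; inactives centre near 12; 0% = biofilm with clotrimazole alone and 100% = kill control; retested singly at about 60 µM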
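Test system: C. albicans biofilms. Buffer or medium: RPMI/MOPS medium, pH 7.0. Timing: 48 h compound exposure at 37 °C. Technique: Alamar Blue fluorescence. Evaluation: percent inhibition of biofilm viability.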
* marks the source's active call; other numbers are inactive results; & = joins results of further samples. Some of the compounds tested; the hit share may differ from the screen's.

A first look (4 entries):
What do the screens show for `CCOCCCNC(=O)CCC(=O)NNc1nc2ccccc2c2nc(C)nn12`?
Biofilm kill mix: 9

What do the screens show for `COc1ccc(OC)c(N/C(=N/C(=S)Nc2ccccc2)Nc2nc(C)cc(C)n2)c1`?
Biofilm kill mix: 1

How did O=C(O)c1ccc(N/N=C/c2cccc3nccnc23)cc1 do in these assays?
Biofilm kill mix: -2

How did CC12COC3(P(=O)(c4ccccc4)c4ccccc4)CC1CCC23CP(=O)(c1ccccc1)c1ccccc1 (centres undefined) do in these assays?
Biofilm kill mix: 8

The listing, repeating the preview:
What do the screens show for `CCOCCCNC(=O)CCC(=O)NNc1nc2ccccc2c2nc(C)nn12`?
Biofilm kill mix: 9

What do the screens show for `COc1ccc(OC)c(N/C(=N/C(=S)Nc2ccccc2)Nc2nc(C)cc(C)n2)c1`?
Biofilm kill mix: 1

How did O=C(O)c1ccc(N/N=C/c2cccc3nccnc23)cc1 do in these assays?
Biofilm kill mix: -2

How did CC12COC3(P(=O)(c4ccccc4)c4ccccc4)CC1CCC23CP(=O)(c1ccccc1)c1ccccc1 (centres undefined) do in these assays?
Biofilm kill mix: 8

Results for Cc1nc(C(=O)Nc2ccc(Cl)cc2)sc1C1(C)CC(c2ccccc2)=NO1 (centres undefined) ?
Biofilm kill mix: 18

How did O=S(=O)(c1cc(Cl)sc1Cl)N1CCCC1 do in these assays?
Biofilm kill mix: 11

What do the screens show for `Cc1nc2ccccc2nc(C)c1=NOCc1cccc(Cl)c1`?
Biofilm kill mix: 13

What do the screens show for `CCOc1ccc(-c2c(=O)n(OCc3nc4ccccc4[nH]3)c3ccccc3[n+]2[O-])cc1`?
Biofilm kill mix: 17

What do the screens show for `Cc1cccc(C)c1NC(=O)COn1nnc2ccc(C(F)(F)F)cc21`?
Biofilm kill mix: 5

Results for O=C(Cn1ccc(C(F)(F)F)n1)N=Nc1c(O)[nH]c2ccccc12 ?
Biofilm kill mix: -5

Results for COCCNC(=S)N/N=C(\C)c1ccccc1O ?
Biofilm kill mix: 6

What do the screens show for `COc1ccc(OCCN2C(=O)NC3(CCc4ccccc4C3)C2=O)cc1` (centres undefined)?
Biofilm kill mix: 23

What do the screens show for `O=C(COc1ccccc1)NN1C(=O)CSC1=S`?
Biofilm kill mix: 6

How did Cn1cc(C=O)c2cc(S(=O)(=O)N3CCOCC3)ccc21 do in these assays?
Biofilm kill mix: 17

Results for CC(=O)N1CCN(C(=S)Nc2ccc(SC(F)F)cc2)CC1 ?
Biofilm kill mix: 4

What do the screens show for `COc1ccc(N2CCN(C(C)C(=O)Nc3nnc(C)s3)CC2)cc1` (centres undefined)?
Biofilm kill mix: 17

What do the screens show for `Cc1nnc(Nc2ccc(Cl)cc2)s1`?
Biofilm kill mix: 13

Results for O=C(Cn1cc(C(=O)c2ccco2)c2ccccc21)Nc1ccccc1F ?
Biofilm kill mix: 9

What do the screens show for `CCN1C(=O)/C(=C\c2nc3ccccc3c(=O)n2CC)c2ccccc21`?
Biofilm kill mix: 9

Results for Cc1cc(C)nc(/N=C(\N)Nc2ccc(C(C)C)cc2)n1 ?
Biofilm kill mix: 5

What do the screens show for `O=C(NN=C1CCC(c2ccccc2)CC1)c1cc2c(s1)CCCC2` (centres undefined)?
Biofilm kill mix: 0

Results for Cc1ccccc1OCc1nnc(SCC(=O)Nc2c(C)n(C)n(-c3ccccc3)c2=O)n1-c1ccccc1 ?
Biofilm kill mix: 13

What do the screens show for `COc1ccccc1C(=O)NCc1ccccc1`?
Biofilm kill mix: 8

How did Cc1ccc(C(=O)CCC(=O)N2CCC(C(N)=O)CC2)cc1 do in these assays?
Biofilm kill mix: 4

Results for CCc1ccc(NC(=O)C(=O)NCCN2CCN(S(C)(=O)=O)CC2)cc1 ?
Biofilm kill mix: 11

How did CCn1c(SCC(=O)N/N=C/c2cccs2)nc2ccccc21 do in these assays?
Biofilm kill mix: 11

What do the screens show for `CC1=CC(=C(C#N)C#N)C=C(C)N1CCN1CCN(C(=O)Nc2cccc(Cl)c2)CC1`?
Biofilm kill mix: 16

How did CN1CCN(CC#CCC2(O)c3ccccc3-c3ccccc32)CC1 do in these assays?
Biofilm kill mix: 14

How did O=C(CCNS(=O)(=O)c1cccs1)NC1CCN(Cc2ccccc2)CC1 do in these assays?
Biofilm kill mix: 18

How did O=Cc1cn(-c2ccccc2)nc1-c1ccncc1 do in these assays?
Biofilm kill mix: 17

How did CCN(CC)c1ccc(NC(=O)C2=CCN(S(=O)(=O)c3ccc(F)cc3)CC2)c(C)c1 do in these assays?
Biofilm kill mix: 14

How did COc1ccc(-c2ccc(C)cc2)cc1[C@H]1[C@@H]2C=CCC[C@@]2(C)C(=O)N1Cc1ccccc1 do in these assays?
Biofilm kill mix: 12

What do the screens show for `Nc1nc(-c2ccc(-n3nncc3-c3ccco3)cc2)cs1`?
Biofilm kill mix: 9

What do the screens show for `Cc1cc(Oc2ncccc2[N+](=O)[O-])c2cc(Cl)ccc2n1`?
Biofilm kill mix: 18

What do the screens show for `CC(=O)C1C(=O)c2c(cccc2[N+](=O)[O-])C1=Nc1ccc(S(N)(=O)=O)cc1` (centres undefined)?
Biofilm kill mix: 9

Results for COCCNCC(=O)Nc1ccccc1Sc1ccccc1 ?
Biofilm kill mix: 8

How did Cc1cc(C)cc(NC(=S)/C(=C(\[O-])c2ccc(Cl)cc2Cl)[n+]2ccc(C(C)(C)C)cc2)c1 do in these assays?
Biofilm kill mix: 20

What do the screens show for `CCOC(=O)Cn1c(=O)oc2cc(S(=O)(=O)NC(C)(C)CC)ccc21`?
Biofilm kill mix: 13

How did C/C(=N\N1C(=O)c2ccccc2NC1c1ccco1)c1ccccc1O (centres undefined) do in these assays?
Biofilm kill mix: 14

Results for CC(C)c1ccc(NC(=O)COC(=O)[C@H](CCC(N)=O)NC(=O)c2ccc(F)cc2)cc1 ?
Biofilm kill mix: 12

How did CSCCC(NC(=O)c1ccccc1)C(=O)O (centres undefined) do in these assays?
Biofilm kill mix: 11

What do the screens show for `Cn1c(SCc2ccccc2F)nnc1-c1ccccn1`?
Biofilm kill mix: 12

What do the screens show for `Cc1ccc(C(=O)N(CN2CCCC2=O)c2ccccc2)cc1`?
Biofilm kill mix: 15

How did Cc1oc(-c2cc(Cl)cc(Cl)c2)cc1C(=O)NCCc1ccccc1 do in these assays?
Biofilm kill mix: 5

Results for CC(=O)c1c(C)[nH]c(C(=O)OCC(=O)Nc2cccc(S(=O)(=O)N3CCCC3)c2)c1C ?
Biofilm kill mix: 6

A draw from above in order of SMILES length, high to low:
Results for CC(=O)c1c(C)[nH]c(C(=O)OCC(=O)Nc2cccc(S(=O)(=O)N3CCCC3)c2)c1C ?
Biofilm kill mix: 6

How did Cc1oc(-c2cc(Cl)cc(Cl)c2)cc1C(=O)NCCc1ccccc1 do in these assays?
Biofilm kill mix: 5

Results for COCCNCC(=O)Nc1ccccc1Sc1ccccc1 ?
Biofilm kill mix: 8

Next part:
How did COc1ccc(/C=N/NC(=O)C(=O)N2CCCC2)cc1OC do in these assays?
Biofilm kill mix: 19

What do the screens show for `CCNC(=S)N/N=C(\C)c1cccc([N+](=O)[O-])c1`?
Biofilm kill mix: 11

Results for CCOCCCNC(=O)c1ccc2c(c1)N=C(CC)c1cc(Br)ccc1S2 ?
Biofilm kill mix: 11

How did C[C@]12CCC(=O)C=C1CC[C@@H]1[C@@H]2[C@@H](O)C[C@@]2(C)[C@H]1CC[C@]2(O)C(=O)CO do in these assays?
Biofilm kill mix: 9

How did COC(=O)/C(C#N)=C/c1c(Oc2cccc(C)c2)nc2ccccn2c1=O do in these assays?
Biofilm kill mix: 16

What do the screens show for `CCC(C)(C)NC(=O)CN(Cc1ccc2c(c1)OCO2)C(=O)CCC(=O)Nc1ccccn1`?
Biofilm kill mix: 19

What do the screens show for `NC(=S)Nc1cccc2[nH]ccc12`?
Biofilm kill mix: -5

How did O=C(CC1(O)C(=O)Nc2ccccc21)c1ccc(-n2cnnn2)cc1 (centres undefined) do in these assays?
Biofilm kill mix: 11

Results for CC(=O)c1ccc(N2CCN(C(=O)/C=C/c3ccc4ccccc4n3)CC2)cc1 ?
Biofilm kill mix: 16

How did C/C(=N\NC(=O)CCc1ccc(S(=O)(=O)N2CCOCC2)cc1)c1ccccc1Cl do in these assays?
Biofilm kill mix: 8

Results for CC(Cc1ccccc1)C(=O)NCCO (centres undefined) ?
Biofilm kill mix: 8

Results for CCn1c(SCC(=O)NCC2CCCO2)nnc1-c1ccc(Cl)cc1 (centres undefined) ?
Biofilm kill mix: 16

Results for COc1ccc2ccc(=O)oc2c1CC(O)C(C)(C)O (centres undefined) ?
Biofilm kill mix: 19

How did COc1cc(/C=C/c2ccc3c(Br)cc(Br)c(O)c3n2)ccc1O do in these assays?
Biofilm kill mix: 12

What do the screens show for `CC(=O)c1ccc(OCC(=O)NCc2ccc(F)cc2)cc1`?
Biofilm kill mix: 21

What do the screens show for `CCn1nc(C)cc1C(=O)Sc1cccc(Cl)c1`?
Biofilm kill mix: 6

Results for Cn1cc(Br)c(-c2cccc(NC(=O)CCC(=O)O)c2)n1 ?
Biofilm kill mix: 25

What do the screens show for `Cc1cccc(NC(=O)CSc2ccc(-c3ccco3)nn2)c1`?
Biofilm kill mix: 17

Results for CN(C)CCNc1nc2sc3c(c2c(=O)n1CCc1ccccc1)CCCCC3 ?
Biofilm kill mix: 15

What do the screens show for `Nc1ccc(C(=O)OCC(=O)NC2CCS(=O)(=O)C2)cc1[N+](=O)[O-]` (centres undefined)?
Biofilm kill mix: 16

How did CC(=O)N(C)c1nnc(-c2ccccn2)s1 do in these assays?
Biofilm kill mix: 17

What do the screens show for `CCN(CC)c1ccc(/C=N/N2CCN(Cc3ccc(C)cc3C)CC2)c(O)c1`?
Biofilm kill mix: 0

What do the screens show for `NC(=O)c1sc(-c2ccsc2)cc1NS(=O)(=O)c1ccc(C(F)(F)F)cc1`?
Biofilm kill mix: 9

What do the screens show for `COC(=O)[C@@H]1C[C@H]2CC[C@H](O)C[C@H]2N1Cc1ccc(Cl)cc1`?
Biofilm kill mix: 3

How did COC(=O)[C@H]1C[C@@H]1[C@H](NC(=O)OCc1ccccc1)c1ccccc1 do in these assays?
Biofilm kill mix: 17

What do the screens show for `O=C(Nc1cccnc1)c1cc2cc(Br)ccc2oc1=O`?
Biofilm kill mix: 18

Results for Cc1ccc2nc(-c3ccccc3)c(CN3CCN(c4ccccc4F)CC3)n2c1 ?
Biofilm kill mix: 12

Results for CCN(CC(=O)Nc1ccc(OC(F)F)cc1)C1CCCCC1 ?
Biofilm kill mix: 0

Results for O=C(NCc1ccc(Cl)cc1)C(=O)NCC1OCCN1C(=O)c1ccc(Cl)cc1 (centres undefined) ?
Biofilm kill mix: 15

How did CCCCNC(=O)C(c1ccc(OCC(=O)OC)c(C(=O)OC)c1)N(CCc1c[nH]c2ccccc12)C(=O)CCCCCN1C(=O)NC(c2ccc(-c3ccccc3)cc2)C(C(=O)OCc2ccccc2)=C1C (centres undefined) do in these assays?
Biofilm kill mix: 3

Results for COc1ccc([N+](=O)[O-])cc1NC(=O)CSc1nc(C)cc(C)n1 ?
Biofilm kill mix: 11

What do the screens show for `CC(C)OC(=O)c1ccc(NC(=O)c2ccccc2)cc1`?
Biofilm kill mix: 10

Results for COC(=O)c1cn(NC(=O)c2ccc([N+](=O)[O-])cc2Cl)c(=O)c2ccccc12 ?
Biofilm kill mix: 15

What do the screens show for `FC(F)(F)c1nc2ccccc2[nH]1`?
Biofilm kill mix: 3

What do the screens show for `COc1cccc(/C=C2\SC(=O)N(CCC(=O)NNC(=O)c3cccc(Cl)c3)C2=O)c1`?
Biofilm kill mix: -4

What do the screens show for `CC(=O)c1ccc(N2CCN(S(=O)(=O)c3cccc4nonc34)CC2)cc1`?
Biofilm kill mix: 22

Results for COc1ccccc1Cn1c(/C=C/c2ccccc2)nc2ccccc21 ?
Biofilm kill mix: -1

How did Clc1ccccc1OCc1nnc(-c2ccccc2)o1 do in these assays?
Biofilm kill mix: 22

Results for COc1cccc(/C=N/Nc2nc3ccccc3n3cnnc23)c1O ?
Biofilm kill mix: 17

What do the screens show for `O=S(=O)(NCCC1CC1(Cl)Cl)c1ccc(Cl)cc1` (centres undefined)?
Biofilm kill mix: 28

Results for CCOc1ccc(N2C(=O)C3ON(c4ccccc4)C(c4cccs4)C3C2=O)cc1 (centres undefined) ?
Biofilm kill mix: 0

How did COc1ccc(CN2C(=O)CSC2c2ccccn2)cc1 (centres undefined) do in these assays?
Biofilm kill mix: 19

How did COc1ccc([N+](=O)[O-])cc1N/C(=N/S(=O)(=O)c1ccccc1)c1ccccc1 do in these assays?
Biofilm kill mix: 5

How did O=C(Nc1ccc(N2CCOCC2)cc1)C1CCN(C(=O)OCc2ccccc2)CC1 do in these assays?
Biofilm kill mix: 15

Results for Nc1ccc(C(=O)O)c(O)c1 ?
Biofilm kill mix: 0&18&16

Results for CCCCCCCCNC1=CC(=O)CC(C)(C)C1 ?
Biofilm kill mix: 22

How did C=CCNC(=S)N1CCN(c2ccc([N+](=O)[O-])cc2)CC1 do in these assays?
Biofilm kill mix: 20

Results for Cc1cccc(NC(=O)c2ccccc2OCC(=O)c2ccc(F)cc2)c1 ?
Biofilm kill mix: 14

Results for CCN(CC)S(=O)(=O)c1ccc2[nH]c(=O)cc(C(=O)Nc3ccc(C)c(S(=O)(=O)N(CC)CC)c3)c2c1 ?
Biofilm kill mix: 8

Results for C/C(CC(=O)Nc1ccc(Cl)c(C(F)(F)F)c1)=N\NC(=O)c1cccc(O)c1 ?
Biofilm kill mix: 7

How did C[C@]12CC(O)C3C(CCC4=CC(=O)CC[C@@]43C)C1CCC2c1csc(-c2ccccc2)n1 (some centres undefined) do in these assays?
Biofilm kill mix: -2

What do the screens show for `CC(=O)c1ccc(NC(=S)Nc2ccc(N3CCOCC3)cc2)cc1`?
Biofilm kill mix: 5

What do the screens show for `Cc1ccccc1N1C(=O)C2C3CC(=O)C(c4ccccc43)C2C1=O` (centres undefined)?
Biofilm kill mix: 17

What do the screens show for `O=C(CC1C(=O)NCCN1Cc1cccc(Oc2ccccc2)c1)NCc1cccnc1` (centres undefined)?
Biofilm kill mix: 6

Bioassay records (PubChem)
